Source: PubChem BioAssay
Vaccinia pol inh – vaccinia E9 polymerase processive synthesis inhibitors, primary screen, biochemical, absorbance | Vaccinia virus DNA polymerase (E9) processive complex | normalized absorbance, % (no concentration beside the values) | 46,000 compounds, 0.94% hits | in vitro processive DNA synthesis, absorbance read-out; hits give low values; some inactives read as strong as hits;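 active = replicate mean up to 90% and picked by the depositor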;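 also: 100% = median of the test wells of a plate; 100 nL library stock went into each well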
* = called active by the depositor.

Preview:
SMILES	Vaccinia pol inh
CC(C)C(=O)Nc1nnc(SCc2cccc(F)c2)s1	95
O=C([O-])C[n+]1cn(CC(=O)O)c2ccccc21	101
CCOC(=O)C(C)Sc1nc2c([nH]c3ccccc32)c(=O)n1-c1ccc(Cl)cc1 (centres undefined)	101
O=C(c1ccc2c(c1)CCO2)N1CCN(C(c2ccccc2)c2ccccc2)CC1	100

All compounds of this part, from the first entry:
SMILES	Vaccinia pol inh
CC(C)C(=O)Nc1nnc(SCc2cccc(F)c2)s1	95
O=C([O-])C[n+]1cn(CC(=O)O)c2ccccc21	101
CCOC(=O)C(C)Sc1nc2c([nH]c3ccccc32)c(=O)n1-c1ccc(Cl)cc1 (centres undefined)	101
O=C(c1ccc2c(c1)CCO2)N1CCN(C(c2ccccc2)c2ccccc2)CC1	100
Brc1cc(Br)c2nc(-c3nccs3)ccc2c1	102
Cc1nc2ccc(-n3cccc3)cc2o1	110
CN(C)/C=c1\s/c(=C/C(=O)c2cccs2)[nH]c1=O	93
Cc1ccc(/C=C/C(=O)O)cc1S(=O)(=O)N1CCC(C(=O)O)CC1	100
CCOC(=O)C1CCCN(C(=S)Nc2cccc(Cl)c2)C1 (centres undefined)	99
CCc1c(C)c(C#N)c2nc3ccccc3n2c1NCCC(C)C	100
Cc1ccc(NC(=O)CC(C)S(=O)(=O)c2ccc3c(c2)SCC(=O)N3)cc1 (centres undefined)	104
Cc1ccccc1NC(=S)N(CCC(C)C)C(C)c1ccncc1 (centres undefined)	112
COC(=O)COc1cc2oc(=O)cc(-c3ccccc3)c2cc1Cl	96
CN(C)/C=C/C(=O)c1ccc(-c2cc(C(F)(F)F)n(C)n2)s1	106
Cc1ccsc1C(=O)OCC(=O)N(C)c1ccccc1	103
Cc1c(C(=O)Nc2ccccc2Br)oc2ccc(S(=O)(=O)N3CCCC3)cc12	102
O=C(O)CNC(=O)c1ccco1	92
CC(C)(C)NC(=O)N1CCCN(c2ccc(C(F)(F)F)cn2)CC1	88
COc1ccc(C2(C#N)CCOCC2)cc1	98
CN(C)c1nc(Oc2ccc(=O)n(C)n2)nc(N(C)C)n1	98
CCC(=O)NCCn1ccc2ccccc21	89
Cc1ccc2cccc(SC(=O)NCC3CCCO3)c2n1 (centres undefined)	100
C=CCNC(=O)CC1CCCCC1	100
CC1CCN(CCCNC(=O)c2cc3c(=O)n(C)c4ccccc4c3s2)CC1	59*
COc1ccc(CCN2C(=O)C=CC2=O)cc1	102
Cc1ccc(C=Nc2ccc(Br)cc2)cc1	100
CC(C)C(NC(=O)c1cccs1)C(=O)NC1CCCCC1 (centres undefined)	100
CC(C)c1c(Br)c(=O)oc2c3c4c(cc12)CCCN4CCC3	100
CC(=O)Nc1nc(-c2ccccc2)c(C(=O)c2ccccc2)s1	99
CN1CCc2c(sc(N)c2C(=O)c2ccc(Cl)cc2)C1	103
COc1cc(NC(=O)COc2ccc(F)cc2)nc(OC)n1	100
CC1=C(N(C)c2ccccc2)C(=O)N(C2CCCCC2)C1	100
Cc1ccc(-c2c(C)sc3ncn(CC(=O)O)c(=O)c23)cc1C	99
O=C(c1cc(-c2cccnc2)nc2ccccc12)N1CCC2(CC1)OCCO2	105
CCCC1=C(C(=O)OCC)C(c2ccccc2)C(C#N)=C(N)O1 (centres undefined)	98
CCC1=Nc2cc(C(=O)N(C)Cc3ccccc3)ccc2Sc2ccc(C)cc21	105
O=C(NCCC(c1ccccc1)c1ccccc1)C1=COCCO1	107
O=C(O)CCCN=C1NC2(CCCC2)Cc2ccccc21	101
O=C(Nc1ccc(F)cc1)N1CCCN(c2ccc(C(F)(F)F)cn2)CC1	94
CCCNc1nc(NC2CCCCC2)nc(OC(C)C)n1	100

Grouped by structure: the entries above containing two or more sulfur atoms
SMILES	Vaccinia pol inh
CC(C)C(=O)Nc1nnc(SCc2cccc(F)c2)s1	95
CN(C)/C=c1\s/c(=C/C(=O)c2cccs2)[nH]c1=O	93
Cc1ccc(NC(=O)CC(C)S(=O)(=O)c2ccc3c(c2)SCC(=O)N3)cc1 (centres undefined)	104

Taken from the entries so far, six compounds:
SMILES	Vaccinia pol inh
CC(C)C(=O)Nc1nnc(SCc2cccc(F)c2)s1	95
O=C([O-])C[n+]1cn(CC(=O)O)c2ccccc21	101
CCOC(=O)C(C)Sc1nc2c([nH]c3ccccc32)c(=O)n1-c1ccc(Cl)cc1 (centres undefined)	101
O=C(c1ccc2c(c1)CCO2)N1CCN(C(c2ccccc2)c2ccccc2)CC1	100
Brc1cc(Br)c2nc(-c3nccs3)ccc2c1	102
Cc1nc2ccc(-n3cccc3)cc2o1	110

(list continues)
SMILES	Vaccinia pol inh
CC(CN1c2ccccc2Sc2ccccc21)N(C)C (centres undefined)	90
CCOc1cc(O)c(-c2[nH]ncc2Oc2ccccc2)cc1CC	100
NNc1nc2cc3c(cc2s1)OCCO3	52*
CCC(C)OC(=O)C1CC=CCC1C(=O)Nc1ccc(C)cc1 (centres undefined)	99
Cc1c(O)c(-c2ccccc2)c(=O)n(-c2ccccn2)c1-c1ccccc1	103
COc1ccc(OCC(=O)Nc2cccc(NC(=O)c3ccco3)c2)cc1	98
O=c1[nH]c2ccccc2nc1/C=C(\O)c1ccco1	86
CCOC(=O)C1CCCN(C(=O)c2ccccc2OCC)C1 (centres undefined)	94
COc1cccc(NC(=O)Cn2cc(C(=O)c3ccccc3)c(=O)c3cc(OC)ccc32)c1	103
CCc1ccc(C2CC(c3ccccc3)n3ncnc3N2)cc1 (centres undefined)	100
CCc1ccccc1NC(=O)CCNS(=O)(=O)c1ccc2c(c1)CC(C)N2C(C)=O (centres undefined)	103
COC(=O)CCC(=O)c1ccc(Br)s1	97
COc1ccc(-n2nc(C(=O)NC3CCCC(C)C3C)c3c4ccccc4n(C)c3c2=O)cc1 (centres undefined)	98
CN(C)S(=O)(=O)c1cc(C(=O)NCC2CCCO2)c(Cl)cc1Cl (centres undefined)	99
Cc1occc1C(=O)Nc1ccc(N(C)C)cc1	101
N#Cc1ccc(N2C(=O)CSC(c3ccccc3)C2=O)cc1 (centres undefined)	121
CC(C)(C)NS(=O)(=O)c1cccs1	99
Cc1ccc(NC(=O)CC2SC(N)=NC2=O)cc1C (centres undefined)	99
CC1CC(C)CN(C(=O)c2ccc(-n3c(=S)[nH]c4ccccc4c3=O)cc2)C1 (centres undefined)	102
N#Cc1ccccc1Cn1c(=O)n(-c2ccc(CC(=O)Nc3ccccc3)cc2)c(=O)c2sccc21	74
O=S(=O)(Cc1ccccc1)c1ccc(C(F)(F)F)cn1	106
O=C(O)CCNC(=O)c1cccnc1	100
Cn1cc(S(=O)(=O)Nc2ccc(Oc3c(Cl)cccc3Cl)nc2)cn1	82
CC1CN(c2ccc(NC(=S)NCc3ccco3)cc2)CC(C)O1 (centres undefined)	106
Cc1ccc(-n2nc(C)c3c(C)onc3c2=O)cc1	100
O=C(CCc1c[nH]c2ccccc12)N1CCn2c(nc3ccccc32)C1	107
Cc1cn([C@H]2C[C@H](N=[N+]=[N-])[C@@H](CO)O2)c(=O)[nH]c1=O	100
NC(=O)NC(=O)C[n+]1ccc(/C=N/O)cc1	101
CCN(c1ccccc1)c1nc2ccccc2n2nnnc12	97
Cc1ccc2c(c1)N(CCO)/C(=C/c1sc3ccccc3[n+]1C)S2	100
OC(c1nc2ccccc2[nH]1)C(O)C(O)C(O)c1nc2ccccc2[nH]1 (centres undefined)	98
FC(F)(F)c1cc(-c2cn3ccccc3n2)cc(C(F)(F)F)c1	102
CCn1c(SCc2ccc(Br)cc2)nnc1-c1ccncc1	99
CCn1cc(C(=O)O)c(=O)c2cc(F)c(N3CCNCC3)cc21	77*
Cc1[nH]c2ccccc2c1C(Nc1ccccc1)c1ccccn1 (centres undefined)	99
COC(=O)NC(=S)Nc1ccc(Oc2ccc(Cl)cc2Cl)cc1	100
O=c1[nH]nc(SCc2ccccc2)c(=S)[nH]1	100
CCN1CCN(C(=O)C2=CC(c3ccc(OC)cc3)=NS(=O)(=O)N2C)CC1	79
Cc1ccc(NCc2ccc(O)c3ncccc23)cc1	100
C=CCn1c(CCNC(=O)C(C)(C)C)nc2ccccc21	95

Overlap with the part before: 6 compounds, then new ones.
SMILES	Vaccinia pol inh
Cc1[nH]c2ccccc2c1C(Nc1ccccc1)c1ccccn1 (centres undefined)	99
COC(=O)NC(=S)Nc1ccc(Oc2ccc(Cl)cc2Cl)cc1	100
O=c1[nH]nc(SCc2ccccc2)c(=S)[nH]1	100
CCN1CCN(C(=O)C2=CC(c3ccc(OC)cc3)=NS(=O)(=O)N2C)CC1	79
Cc1ccc(NCc2ccc(O)c3ncccc23)cc1	100
C=CCn1c(CCNC(=O)C(C)(C)C)nc2ccccc21	95
Cc1nc2ccccn2c1-c1ccnc(SCC(=O)c2ccc(Cl)cc2)n1	101
O=C(O)c1cc(-c2ccco2)nc2ccc(Br)cc12	87
CCOc1cc(/C=C2\SC(=S)N(C(C)C(=O)O)C2=O)ccc1O (centres undefined)	99
Cc1cn2c3ccccc3nc2n1CCCO	101
O=C(NCc1cccs1)C1CCCN(S(=O)(=O)c2cccnc2)C1 (centres undefined)	100
O=C(CCC(=O)c1ccc(F)cc1)c1ccc(F)cc1	110
Cc1cc2cc(CNC(=O)CCCc3ccccc3)ccc2[nH]1	100
CCOC(=O)Cc1cn2ccsc2n1	105
Cc1ccc(C)c(Cn2c(=O)n(CCCC(=O)NCc3ccccc3Cl)c(=O)c3ccccc32)c1	102
c1ccc(CSc2nnc(SCc3ccccn3)s2)nc1	100
COC1=CC(=O)C[C@@H](C)[C@]12Oc1c(Cl)c(OC)cc(OC)c1C2=O	104
Cc1cccc(C)c1OCc1nnc(CCc2ccccc2)o1	103
C=CCSc1ncnc2c1sc1nc(N3CCOCC3)c3c(c12)CCCC3	100
Cn1c(SCC2CCCCO2)nnc1-c1ccccc1 (centres undefined)	102
O=C(c1cnn2ccccc12)N1CCC(C(O)(c2ccccc2)c2ccccc2)CC1	104
Cc1cc(C)c2c(c1)NC(=O)CC2c1cccc(Cl)c1Cl (centres undefined)	105
COC(=O)c1ccc(-c2ccco2)n1CC(=O)N1CCCC1	104
CCOC(=O)C(C)Oc1ccc2ccc(=O)oc2c1 (centres undefined)	102
COC1CS(=O)(=O)CC1OC (centres undefined)	99
CC(C)Sc1nc2c([nH]c3ccccc32)c(=O)n1-c1ccccc1	99
COc1cccc(CNC(=O)c2ccc(N3CCCC3=O)cc2)c1OC	106
Cc1c(C(=O)NN)nn(-c2ccccc2)c(=O)c1C#N	100
Cc1cccc(Nc2ncnc3nc[nH]c23)c1	100
CCCN1Cc2cccc(C(=O)N3CCN(c4ccccc4)CC3)c2C1=O	97
O=C(Nc1cccc2ccccc12)C12CC3CC(CC(C3)C1)C2	100
Cc1ccc(C(=O)O)cc1NC(=O)c1cccc(Cl)c1	100
O=C(c1cc(Cl)sc1Cl)N1CCc2ccccc21	99
C=CCn1c(C(C)Oc2ccc(Cl)cc2Cl)n[nH]c1=S (centres undefined)	88
O=C(Nc1nccs1)c1ccccc1C(=O)Nc1nccs1	101
C=CCOc1cc(OCC=C)cc(C(=O)O)c1	108
COc1cc2c(cc1OC)C(COc1ccc(F)cc1)N(C(=O)c1ccc(Cl)cc1)CC2 (centres undefined)	87
N#Cc1ccccc1NC(=O)c1cccc(C(F)(F)F)c1	97
CC(Oc1ccccc1Br)C(=O)N1CCc2ccccc21 (centres undefined)	96
CN(C)/C=N/S(=O)(=O)c1cc(C(F)(F)F)cc(C(F)(F)F)c1	96
Cn1c(-c2ccc3c(c2)OCO3)cn2cc(-c3ccc(Br)cc3)nc12	99
CN=C(Nc1ccc(Cl)cc1)c1cccnc1	94
NC(=O)c1c(NC(=O)c2cc(-c3ccccc3)on2)sc2c1CCCC2	93
O=S(=O)(c1ccccc1)n1ccc2ccccc21	84
O=C(COC(=O)Cc1ccsc1)Nc1ccc(C(F)(F)F)cc1	104
NC(N)=NS(=O)(=O)c1ccc(NC(=O)c2ccc(Cl)cc2)cc1	100
CCN(Cc1ccccc1)CC(O)COc1ccc(Cl)cc1Cl (centres undefined)	100
CCN1/C(=C/c2sc3ccccc3[n+]2CCO)Sc2ccccc21	91
CCOc1ccc(N=CNc2ccc(OCC)cc2)cc1	100
Cc1cc[n+](Cc2ccccn2)c(N)c1	99
CCOC(=O)c1ncn(-c2ccccc2)n1	97
CC(C)c1ccc(N2CC(O)=C(c3nc4ccccc4[nH]3)C2=N)cc1	96
Cc1ccc(C(=O)N/C(N)=N/c2nc3ccccc3s2)cc1	100
CCN(C(=O)/C=C/c1cccs1)C1CCCCC1	80
Cc1c(C(=O)N(C)C2CCCCC2)sc2nc(-c3ccc(F)cc3)cn12	102
Cc1ccc(-c2nc(CSCC(=O)Nc3cc(C)on3)c(C)o2)cc1	75
S=c1nc(C2COc3ccccc3O2)[nH][nH]1 (centres undefined)	97
COC(=O)c1sc2ncn(Cc3ccc(C)cc3)c(=O)c2c1C	94
CCCCN1C(=O)/C(=C2/C(=O)N(Cc3ccccc3)c3ccccc32)SC1=S	104
O=C(Cn1cccc1C(=O)c1ccccc1)NC1CC1	105
COc1ccc(CCN=Cc2ccccc2O)cc1OC	97
COc1cccc(CN2COc3ccc4c(-c5ccccc5)cc(=O)oc4c3C2)c1	99
Cc1c(C(=O)N2CCCC2)oc2ccc3c(c12)C(=O)CC(C)(C)O3	96
COc1ccc(/C=C2\COc3ccccc3C2=O)cc1	108
O=C(C1CCN(c2nccc(C(F)(F)F)n2)CC1)N1C=CC(C(F)(F)F)=NCC1	97
Cn1nc(C(F)(F)F)c(C(=O)Nc2ccc(F)cc2F)c1Cl	84
(listing goes on)
SMILES	Vaccinia pol inh
CC1Cc2ccccc2N1C(=O)CCN1C(=O)C2C3C=CC(C3)C2C1=O (centres undefined)	97
COc1cc(NC(=O)C2CC(=O)NC3=C2C(=O)CC(C)(C)C3)c(OC)cc1Cl (centres undefined)	98
Cc1nnc2c(Nc3ccc4c(c3)OCO4)nc3ccccc3n12	103
Cc1ccc(NC(=S)N(Cc2cn(C)c3ccccc23)C(C)C)cc1	104
CSc1sc(C(=O)O)c(C)c1S(=O)(=O)c1ccc(Cl)cc1	91
CCC(=O)Nc1ccc(N2CCN(C(=O)C(C)C)CC2)cc1	108
CC1CCc2sc(NC(=O)c3ccco3)c(C#N)c2C1 (centres undefined)	85
CCN(CC)CC(O)Cn1ccc2ccccc21 (centres undefined)	97

The list is partial, so the mix of outcomes need not match the whole.
